Compound activity deposited in PubChem BioAssay by several laboratories.
LANA-H2B inh: blocks KSHV LANA binding to histone H2A/H2B; inhibition, % (no concentration beside the values); 320,000 compounds, 0.6% hits; cell-free LANA-H2A/H2B peptide, fluorescence polarization; Q9QR71; in the data active = inhibition mostly above about 10%, no sharp cut-off; inactive = mostly below about 6.7%;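 note: stock transfer was 7.5 nL into about 10 µL; 0% = median of vehicle wells and 100% = median of positive control wells; one replicate is shown; the record names a cut of 25% in any replicate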
Beta2AR agonist: agonists of human beta-2 adrenergic receptor inducing internalization; P07550; response, % (no concentration beside the values); 340,000 compounds, 0.43% hits; Am2.2-beta2AR cells, FAP receptor internalization, flow cytometry; reference of the scale not given here;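 active = response above a set limit, near 3 SD of response in nonfluorescent compounds, cut at about 42% in these data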;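 note: stock transfer was 100 nL into about 11 µL; a reference agonist was the positive control; negative values mostly stem from fluorescent compounds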
Bfl-1 A1 inh: inhibitors of the anti-apoptotic protein A1, read as caspase activation; 330,000 compounds, 0.066% hits; caspase activation, % (concentration not given with the values); MEF A1-2A-BIM cells, Caspase-Glo 3/7 luminescence, 3 h; percent of clofoctol response, vehicle zero; AID 2462;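 active = over half of replicate activation scores above 10%, or exactly half above 10 with the replicate mean above 10; inconclusive = replicate mean below 10 yet half the replicates above 10; inactive = over half of replicates below 10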;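 note: wells of about 30 µL received 50 nL stock; many hits fall short of the cut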
UCH37 DUB inh: blocks the human deubiquitinase UCH37; Q9Y5K5; purified proteasome/UCH37, Ub-AMC cleavage fluorescence; inhibition, % (no concentration beside the values); 330,000 compounds, 0.33% hits; AID 588478;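 active = mean of two replicates above 20%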;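 note: 0% = compound-free wells with enzyme and 100% = wells lacking proteasome; stock transfer was 100 nL into about 20 µL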
Target sequence (Q9Y5K5 whole entry, looked up): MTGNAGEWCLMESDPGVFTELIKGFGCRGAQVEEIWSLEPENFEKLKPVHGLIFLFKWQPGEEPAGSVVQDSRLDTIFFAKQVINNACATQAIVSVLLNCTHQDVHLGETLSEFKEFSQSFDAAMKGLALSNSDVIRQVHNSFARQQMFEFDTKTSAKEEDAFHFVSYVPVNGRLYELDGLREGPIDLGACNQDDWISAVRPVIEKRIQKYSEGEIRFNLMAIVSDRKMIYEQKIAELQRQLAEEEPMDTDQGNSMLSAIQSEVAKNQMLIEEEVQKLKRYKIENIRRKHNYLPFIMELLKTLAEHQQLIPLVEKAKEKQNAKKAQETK
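Material: human UCH37 enzyme supplied as purified proteasome complex. Measure: % inhibition of Ub-AMC cleavage fluorescence. Medium: pH 7.4 Tris-HCl (50 mM) with ovalbumin, ATP-MgCl2, DTT. Times: 30 min preincubation with enzyme, 25 min cleavage at room temperature. Detection: AMC fluorescence intensity at 355/460 nm.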
Vif A3G: inhibitors of Vif binding to APOBEC3G peptide, primary screen, biochemical, TR-FRET, GST-Vif 1-94, biotin-A3G peptide, dose response retest (AID 1117319) | TR-FRET GST-Vif / biotin-A3G peptide binding; higher % means a stronger effect; test concentration not given here; strong numbers were not always called active | inhibition, %, or IC50 in µM where a hit was titrated | 260,000 compounds, 0.57% hits;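 active = above the screen mean plus three standard deviations and confirmed in dose response; inconclusive = results disagree or hit not tested in dose response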;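 note: Vif residues 1-94 fused to GST binding biotinylated APOBEC3G peptide 110-148; 0% = full assay without inhibitor and 100% = GST in place of GST-Vif; retest series ran down from 100 µM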
E coli growth: inhibitors of Escherichia coli growth. OD600, 23 h; hits give low values. OD600 absorbance (no concentration beside the values). 330,000 compounds, 0.21% hits;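 active = OD600 absorbance below the run mean of sample wells minus 3.6 SD, in any replicate, cut at about 0.56 in these data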;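 note: stock transfer was 300 nL into about 60 µL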
HNF4A DNA FP: change in binding of human HNF4 alpha to DNA | P41235 | HNF4a-FITC DNA binding, fluorescence polarization, 1 h | 360,000 compounds, 0.3% hits | activity change, % at 10 µM | AID 1224865; in the data active = activity change above about 30%, passing the limit was not always enough;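 note: controls were the assay level and a saturating level of protein; the project sought stronger binding though the title names inhibitors; some compounds called inactive have numbers as strong as hits; positive values seem to mean higher polarization but the record does not say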
Target sequence (P41235 whole entry, looked up): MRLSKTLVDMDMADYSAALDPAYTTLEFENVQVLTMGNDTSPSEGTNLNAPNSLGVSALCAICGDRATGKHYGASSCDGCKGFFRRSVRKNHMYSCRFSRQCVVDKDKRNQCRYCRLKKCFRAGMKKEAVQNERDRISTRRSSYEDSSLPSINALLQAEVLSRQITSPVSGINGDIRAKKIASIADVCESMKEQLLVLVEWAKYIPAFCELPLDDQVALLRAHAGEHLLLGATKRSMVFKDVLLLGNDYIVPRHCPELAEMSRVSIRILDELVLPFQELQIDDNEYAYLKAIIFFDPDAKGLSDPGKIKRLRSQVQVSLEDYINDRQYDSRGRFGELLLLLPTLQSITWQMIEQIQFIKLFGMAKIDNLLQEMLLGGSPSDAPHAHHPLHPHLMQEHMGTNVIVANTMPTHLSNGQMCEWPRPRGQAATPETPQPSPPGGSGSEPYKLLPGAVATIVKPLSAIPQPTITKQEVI
* marks the source's active call; other numbers are inactive results; u = inconclusive; x = not tested or not shown; + = active, no number; & = joins results of further samples.

structure	LANA-H2B inh	Beta2AR agonist	Bfl-1 A1 inh	UCH37 DUB inh	Vif A3G	E coli growth	HNF4A DNA FP
COc1ccc(NC(=O)c2cc(-c3ccco3)nc3ccccc23)cc1S(=O)(=O)N1CCOCC1	1.0	-3	1.7	-29	2.4µM*	0.72	-29
Cc1ccc(CSc2nc3ccccc3cc2C=O)cc1	0.8	38	1.3	x	1%	x	2.4
CCc1nc(SCc2ccccc2C)n[nH]1	0.2	-8	-0.1	1.9	x	0.68	-6.0
Cc1nn2cc(-c3ccc(-c4ccccc4)cc3)nc2s1	2.5	2	-6.6	-4.3	-1%	0.75	-0.5
CN1C(=O)/C(=N\OC(=O)c2ccccc2Cl)c2ccccc21	2.4	0	0.1	x	3%	x	0.3
Cc1nc(-c2ccc(C(=O)Nc3cccc(F)c3)cc2)cs1	0.8	6	-7.6	0.4	x	0.69	4.1
COc1ccc(CNC(=S)NCc2ccc(OC(C)C)cc2)cc1	-9.1	-2	0.9	0.5	-4%	0.67	-3.9
Cc1ccc(NC(=O)/C=C/c2cccc([N+](=O)[O-])c2)nc1	-4.7	-1	-0.4	3.2	5%	0.67	-2.6
COc1ccc(S(=O)(=O)N(C)c2ccccc2)c2cccnc12	1.6	-12	-0.7	3.8	10%	0.66	4.6
CC(C)c1nnc(NC(=O)CCC(=O)Nc2ccc3cn[nH]c3c2)s1	1.7	0	0.0	2.4	-6%	0.71	4.4
O=S(=O)(c1ccc2c(c1)C(O)c1ccccc1CC2)C(F)(F)F (stereo not drawn)	0.3	-12	-1.8	2.2	x	x	1.9
COc1cccc(NC(=O)CN(C)CC(=O)NCc2ccc3c(c2)OCO3)c1	4.5	-1	-0.6	-0.5	x	0.68	4.1
Cc1ccc(C(c2sc3ncnn3c2O)N2CCCCC2)cc1 (stereo not drawn)	2.5	2	0.9	0.9	9%	0.74	-2.8
CC(CN1CCNCC1)(NS(=O)(=O)c1ccccc1)c1ccccc1 (stereo not drawn)	0.9	21	-0.4	-0.7	-3%	0.72	0.2
CC(Oc1ccccc1)C(=O)N1CCN(c2ncccn2)CC1 (stereo not drawn)	x	3	0.6	-3.2	-8%	0.67	2.3
Cn1cc(C=C2C(=O)OC3(CCCCC3)OC2=O)c2ccccc21	-0.5	-4	0.2	2.6	25%	0.62	-1.8
Cc1ccc(-c2nn(-c3ccccc3)cc2CN(Cc2ccccc2)C(=O)CCC(=O)O)o1	-1.8	-26	-1.1	2.1	10%&2%	0.73	1.6
COc1ccccc1NC(=O)CN1CCN(c2ccccn2)CC1	3.2	10	0.4	2.0	u	0.7	1.0
COc1cccc(C(=O)CN2C3=NCCCN3c3ccccc32)c1	0.5	-10	-0.9	1.3	-3%	0.78	2.3
CCOC(=O)Cc1c(C)nc2c(C#N)c(C)nn2c1C	4.8	5	2.6	-70	19%	0.66	-0.4
COc1ccc(CCNC(=O)C(C)n2nc(C)n3c(cc4occc43)c2=O)cc1OC (stereo not drawn)	6.9	-1	0.8	-0.5	-6%	0.69	-0.7
CCCCCn1c(CNC(C)=O)nc2ccccc21	4.9	0	0.5	1.1	-5%	0.68	-0.9
COc1ccc(N2CCN(C(=O)COC(=O)CCOc3ccccc3C)CC2)cc1	2.2	-9	-0.3	-0.1	-3%	0.62	1.7
CCN(CC)CCNc1nc2ccccc2n1C	-1.6	-2	1.3	5.7	6%	0.73	4.3
COc1ccc(C(=O)Nc2nnc(SCC(=O)NC3CCCC3)s2)c(OC)c1	0.3	4	-10.0	2.0	x	0.72	3.1
CC(C)CCN(C(=S)Nc1cccc(F)c1)C(C)c1cccs1 (stereo not drawn)	-5.1	-3	-0.3	2.1	-2%	0.68	-3.0
COc1ccc(C2C(C#N)C(C#N)N3CCCN23)cc1 (stereo not drawn)	3.2	-2	-0.3	4.1	4%	0.67	-2.4
Oc1c(Cl)cc(Cl)c(Cl)c1CN1CCOCC1	x	-5	x	1.8	-7%	0.63	-1.2
O=C(COC(=O)c1ccc(Cl)nc1)NCCNC(=O)COC(=O)c1ccc(Cl)nc1	-2.4	2	0.5	3.8	-2%	0.7	-1.4
CCOC(=O)c1c(Cc2ccc(Cl)cc2)c[nH]c1C	2.1	9	0.0	4.6	x	0.68	-0.8
CC1=C(C(N)=O)C(c2ccncc2)n2nc(-c3ccccc3Cl)nc2N1 (stereo not drawn)	6.8	3	-0.2	1.7	0%	0.73	0.0
Cc1ccccc1C(=O)N1CCC(C(=O)Nc2ccccc2N2CCCC2)CC1	2.9	0	0.2	0.9	1%	0.62	3.1
Cc1ccc(C)c(C(=O)Nc2nc3ccccc3[nH]2)c1	0.8	-5	-0.6	4.3	x	0.74	0.0
CCC1CCCCN1CCCNC(=O)c1ccc2c(c1)NC(=O)CS2 (stereo not drawn)	0.4	6	1.9	0.2	x	0.71	-2.7
CC1CCN(S(=O)(=O)c2ccc(C(=O)Nc3ccccn3)cc2)CC1	x	2	-2.8	4.2	-6%	0.68	-0.8
Cc1cc(-c2ccco2)n2c(nc3ccccc32)c1C#N	0.1	15	1.9	x	14%	0.7	-2.4
O=C(Nc1ccc(F)cc1)NC1CCN(Cc2c(F)cccc2Cl)CC1	-0.1	7	0.5	3.0	4%	0.63	2.7
CC[C@@]1(C(=O)OC)N[C@H](CN(C)C(=O)Nc2ccc(OC)cc2)[C@@H]2C(=O)N(Cc3ccccc3)C(=O)[C@@H]21	+	-6	-1.0	3.1	-2%	0.67	-1.6
O=C(CCSCCc1ccccn1)Nc1cccc([N+](=O)[O-])c1	-1.4	9	0.3	2.9	4%	0.71	2.0
CCOc1ccc(NC(=S)N2CCC(c3nc4ccccc4[nH]3)CC2)cc1	-1.2	6	0.5	1.2	3%	0.65	0.1
Fc1ccc(Cn2cccc2C2=NC(c3ccccc3)CO2)cc1 (stereo not drawn)	0.0	3	0.5	1.3	x	0.71	3.1
C=CCn1cnc2c(nnn2Cc2ccc(F)cc2)c1=O	-1.8	-2	-0.1	3.4	2%	0.67	1.6
C/C(=N\NC(=O)CC1N=C(Cc2ccccc2)NNC1=O)c1ccc(C)cc1 (stereo not drawn)	-2.6	5	0.8	x	-9%	x	1.6
CCOC(=O)CC(c1ccc(N)cc1)n1c(C)ccc1C (stereo not drawn)	0.0	12	0.1	-1.6	8%	0.7	1.5
Cc1nc2ccccc2c2oc(C(=O)NCCN3CCCCC3C)cc12 (stereo not drawn)	0.9	-6	0.0	-0.6	-1%	0.8	-2.4
COc1ccc(/C=C(/NC(=O)c2ccc([N+](=O)[O-])cc2)C(=O)NCCCN(C)C)cc1	-2.7	0	1.3	5.1	x	0.65	-1.0
O=C(NC(c1ccccc1)C(Cl)(Cl)Cl)c1ccccc1 (stereo not drawn)	7.1	5	0.4	4.4	18%	0.64	5.5
CC(=O)NC(C)CCc1ccccc1 (stereo not drawn)	-2.0	1	0.1	2.2	5%	0.62	0.8
O=c1oc(-c2ccccc2NS(=O)(=O)c2ccc3ccccc3c2)nc2ccccc12	-1.7	9	0.3	-6.1	x	0.65	-1.4
Cc1cc(=O)[nH]c(-n2ncc(C#N)c2N)n1	1.7	4	-0.1	x	-5%	x	2.5
O=C(O)c1ccc(N/N=C/c2c[nH]c3ccccc23)cc1	-5.6	-1	-7.7	x	0%	x	-0.7
O/N=C(/c1ccccc1)c1cc2cc(Br)cc(Br)c2o1	-2.8	8	-1.1	x	1%	x	2.3
CCCCN(CCCNC(=O)Cn1nc(CC)n2c(cc3sc(C)cc32)c1=O)Cc1ccccc1	0.4	-12	0.4	2.6	-5%	0.69	1.1
N#Cc1ccc(S(=O)(=O)N2CCN(C(=O)c3cn(-c4ccccc4)nc3-c3cccnc3)CC2)cc1	x	-11	x	5.8	x	0.69	0.0
O=C(/C=C/c1ccc2c(c1)OCO2)NCCCN1CCOCC1	-1.0	3	0.4	-20	10%	0.69	4.7
CC(OC(=O)Cc1ccccc1[N+](=O)[O-])C(=O)Nc1ccc(Cl)cn1 (stereo not drawn)	-0.9	0	0.2	0.3	x	0.69	-2.1
CCN1CCc2c(OCC(=O)Nc3ccc4c(c3)OCCO4)cccc2C1=O	-0.7	x	0.0	-1.9	x	0.75	x
CC(=O)Nc1ccc(Oc2cnc3ccccc3n2)cc1	-2.1	5	0.0	5.2	-37%	0.73	2.0
O=S(=O)(c1ccc2nc(N3CCN(c4ccccc4)CC3)ccc2c1)N1CCCCC1	2.0	-3	0.4	-29	-93%	0.71	2.0
CC(C)(C)OC(=O)N1CCC(CNC(=O)c2cccs2)CC1	-0.3	-1	0.5	6.3	-12%	0.65	0.1

Going on with the list.
structure	LANA-H2B inh	Beta2AR agonist	Bfl-1 A1 inh	UCH37 DUB inh	Vif A3G	E coli growth	HNF4A DNA FP
CCCCNC(=O)O[C@H]1C[C@@H]2CCN3C(=O)CCC[C@H]([C@H]1Cc1ccccc1)[C@H]23	4.0	2	0.7	1.4	x	x	0.4
COc1cccc(-c2cc(C(=O)NCC3CCCO3)c3cc(Br)cc(C)c3n2)c1 (stereo not drawn)	5.1	8	0.4	3.2	-9%	0.73	-1.0
Cc1ccccc1-c1cc(C(=O)n2cccn2)c2cc(Cl)ccc2n1	-0.7	3	-0.2	-3.1	15%	0.73	1.5
CCCC(=O)Nc1ccc(Cl)c(NC(=O)c2ccco2)c1	2.2	-4	-0.7	2.3	-1%	0.68	0.0
O=C(Nc1ccc(N2CCN(C(=O)c3cccs3)CC2)cc1)c1cccnc1	-3.7	-3	0.0	3.9	20%	0.66	2.2
CC[C@H](C)[C@@H]1NC(=O)c2cc([N+](=O)[O-])cc(F)c2OCC[C@@H](C(N)=O)NC(=O)[C@H](CCCCN)NC1=O	-1.2	-7	-0.5	3.1	5%	x	1.0
CCOC(=O)c1cccc(NC(=O)CN(C)S(=O)(=O)c2cnc[nH]2)c1	5.8	3	0.5	-0.1	-3%	0.71	-2.8
COc1ccccc1N1CN(Cc2ccccc2)CNC1=S	-2.9	-3	0.0	2.7	u	0.68	1.2
Cc1n[nH]c(=O)c2c(NC(=O)CSc3ccc(F)cc3)oc(C)c12	1.4	0	1.0	2.8	0%	0.67	4.2
Cc1c(C(=O)O)oc2ccc(S(=O)(=O)NC3CCCCCCC3)cc12	1.4	2	0.6	1.8	12%	0.7	-1.5
Cc1cccc(NC(c2ccc(C)s2)c2ccc3ccc(C)nc3c2O)n1 (stereo not drawn)	-3.6	30	-0.7	-0.7	x	0.66	2.5
CCOc1ccc(CNC(=O)CCCOc2cc(=O)n(C)c3ccccc23)cc1	0.0	-12	0.6	2.8	-4%	0.72	3.0
COc1cccc2cc(C(=O)N3CCN(c4ccc(C)cc4C)CC3)c(=O)oc12	7.5	-1	0.1	1.0	9%	0.78	-0.8
COc1ccc(N2C(=O)CC(Sc3nc4ccccc4s3)C2=O)cc1OC (stereo not drawn)	-9.2	3	1.9	3.7	-3%	0.68	3.8

Full records from above. Screens in order: LANA-H2B inh | Beta2AR agonist | Bfl-1 A1 inh | UCH37 DUB inh | Vif A3G | E coli growth | HNF4A DNA FP
COc1ccccc1N1CN(Cc2ccccc2)CNC1=S is listed as -2.9 | -3 | 0.0 | 2.7 | u | 0.68 | 1.2
CCOC(=O)c1cccc(NC(=O)CN(C)S(=O)(=O)c2cnc[nH]2)c1 is listed as 5.8 | 3 | 0.5 | -0.1 | -3% | 0.71 | -2.8
